High-throughput results from PubChem BioAssay.
VACV Venus inh: inhibitors of vaccinia virus (Venus reporter) | 0.46% of 330,000 active | Potency, µM (series often up to 36.5 µM), for inactives: top-dose activity change, negative = inhibition, actives largely listed as inhibitors | Vaccinia virus Venus reporter expression, fluorescence; active means well fitted inhibition curve with a large enough effect; inconclusive means small, poorly fitted or top-dose-only effect; inactive means no such curve, though single readings can be large or run the other way; tested in A549 cells; also: nearly all actives have a fitted effect of over 30% in size; inactives centre near -10
Vaccinia mCherry: inhibitors of vaccinia virus infection (mCherry reporter signal) | 0.63% of 310,000 active | AID 720579 | Potency, µM (highest dose often 36.5 µM), for inactives: at the top dose activity change, negative = inhibition, actives largely listed as inhibitors | Vaccinia virus mCherry reporter infection, fluorescence; about a quarter of the inactives have no number; active = well fitted inhibition curve with a large enough effect; inconclusive = small, poorly fitted or top-dose-only effect; inactive = no such curve, though single readings can be large or run the other way; tested in A549 cells; also: nearly all actives have a fitted effect of over 35% in size; inactives centre near -10
An asterisk follows results filed as active; i = inactive; ? = inconclusive; · = not tested or not shown; & = joins results of further samples; [ ] = dose if it differs, or a comment. % is scaled to controls: 0 for no effect and ±100 for the full control effect; potency is read from the fitted curve at half-maximal effect.

SMILES	VACV Venus inh	Vaccinia mCherry
N#Cc1ccc(C(=O)Nc2cccc(S(=O)(=O)NC3=NCCC3)c2)cc1	-5.3%	-11.2%
CCCc1ccc(S(=O)(=O)N2CCN(C(C)C(=O)NC3CCCC3)CC2)cc1 (stereo unspecified)	-19.2%	i
O=C(c1cccc(C(F)(F)F)c1)C1CCCN(C(=O)CN2CCCC2=O)C1 (stereo unspecified)	-14.5%	-14.9%
O=C(Nc1cccc(NC(=O)c2ccc(Br)cc2)c1)c1ccccc1	-22.7%&2.3%	-26.3%&2.4%
COC(=O)Cc1c[nH]c2ccc(OCC(O)CNC(C)C)cc12 (stereo unspecified)	-8.9%	-1.5%
O=C(NCC1CCCN(C(=O)CN2CCCCC2)C1)c1ccccc1Cl (stereo unspecified)	-9.4%	-11.9%
Cc1ccc(C(=O)Nc2nnc(S(=O)(=O)N3CCC(C)CC3)s2)cc1	-11.5%	i
Cc1ccc(CN(Cc2ccco2)C(=O)COc2ccccc2C)cc1	4.9%	-7.8%
CCCCN(C(=O)CCC(=O)Nc1cc(C)on1)C(C(=O)NC(C)(C)C)c1ccccc1Cl (stereo unspecified)	4.8%	-7.0%
O=C1CCCN1CCCNC(=S)Nc1ccc(Br)cc1Cl	-15.9%	-4.6%
COc1ccccc1OCCNC(=O)CC(NC(C)=O)c1ccccc1 (stereo unspecified)	-3.5%	-0.4%
Cc1ccc(C)c(S(=O)(=O)N2CCN(CC(=O)N3CCc4ccccc4C3)CC2)c1	-18.3%	·
COc1cccc(/C=C(/CC(=O)Nc2ccc(N3CCOCC3)cc2)c2nc3ccccc3s2)c1	-15.9%	-16.2%
CCN1CCN(C(c2ccc(Cl)cc2)c2c(O)cc(C)n(CCOC)c2=O)CC1 (stereo unspecified)	-8.8%	-2.6%
CC1CCN(C(=O)c2cccc(NC(=O)c3nsc4ccccc34)c2)CC1	-6.4%	-3.2%
CC(C)c1ccc(OCc2ccc(C(=O)N3CCN(c4ccccn4)CC3)cc2)cc1	-29.0%	·
O=C(O)c1ccc(CNCc2cccc(Cl)c2)cc1	-4.0%	-4.7%
CCN(CC)S(=O)(=O)c1cccc(NC(=O)COc2ccc(F)cc2Br)c1	-10.0%	-10.1%
O=C(Cc1ccccc1)Nc1sc2c(c1C(=O)Nc1ccccc1Cl)CCCCC2	-1.4%	-8.5%
CC(C)CCn1c(=O)c2ccccc2c2ccccc2c1=O	-20.2%	·
O=C(Nc1ccc2oc(-c3ccccc3F)nc2c1)c1ccc2c(c1)OCCO2	-29.1%	i
CC1CC1C(=O)OCc1cc(=O)n2cc(Br)ccc2n1 (stereo unspecified)	-4.7%	-13.5%
O=S(=O)(Cc1ccccc1)c1nc2ccccc2n1Cc1ccccn1	-6.3%	i
CN(C)S(=O)(=O)c1cccc(NC(=O)c2ccccc2SCC(=O)N2CCCC2)c1	-7.1%	5.9%
COC(=O)c1ccccc1S(=O)(=O)Nc1ccc2cn[nH]c2c1	-10.5%	-12.9%
COc1ccccc1N(C)S(=O)(=O)c1ccc(C(=O)Nc2ncc(C)s2)cc1	-19.1%	-7.3%
C[C@H](CO)N1C[C@H](C)[C@@H](CN(C)S(=O)(=O)c2cn(C)cn2)Oc2c(NS(=O)(=O)c3ccc(F)cc3)cccc2C1=O	-5.7%	i
COc1cccc(N2CCN(C(=O)c3nn(C)c4c3CSc3ccc(C)cc3-4)CC2)c1	1.6%	i
CCCCC(=O)N(C)c1c(CC)nc2c(OCc3ccc(Cl)cc3Cl)cccn12	-5.9%	21.1%
Cc1ccccc1NC(=O)Cn1cnc2c1c(=O)n(C)c(=O)n2C	-3.8%	1.1%
Cc1cc([N+](=O)[O-])ccc1NC(=O)Nc1ccccc1F	-11.6%	-17.0%
Cc1[nH]nc(SCC(=O)Nc2cccc(O)c2)c1[N+](=O)[O-]	4.8%	i
COc1cc(C(=O)Nc2nc(-c3ccc(Cl)cc3)c(C)s2)ccc1OCC(=O)Nc1ccc(F)cc1	-10.2%	-11.0%
O=C(Oc1cccc(/C=N/Nc2nc(N3CCOCC3)nc(N3CCOCC3)n2)c1)c1ccco1	-14.4%	-0.4%
CCCc1cc(OC)c2c(c1)OCO2	-11.1%	-18.0%
O=C(O)CC1=C(O)C(=O)N(c2ccccc2)C1c1ccc(Cl)cc1 (stereo unspecified)	-5.5%	·

Ordered by SMILES length (smallest number first): some entries from above
SMILES	VACV Venus inh	Vaccinia mCherry
CCCc1cc(OC)c2c(c1)OCO2	-11.1%	-18.0%
O=C(O)c1ccc(CNCc2cccc(Cl)c2)cc1	-4.0%	-4.7%
O=C1CCCN1CCCNC(=S)Nc1ccc(Br)cc1Cl	-15.9%	-4.6%
CC(C)CCn1c(=O)c2ccccc2c2ccccc2c1=O	-20.2%	·
CC1CC1C(=O)OCc1cc(=O)n2cc(Br)ccc2n1 (stereo unspecified)	-4.7%	-13.5%
COc1ccccc1OCCNC(=O)CC(NC(C)=O)c1ccccc1 (stereo unspecified)	-3.5%	-0.4%
Cc1cc([N+](=O)[O-])ccc1NC(=O)Nc1ccccc1F	-11.6%	-17.0%
O=S(=O)(Cc1ccccc1)c1nc2ccccc2n1Cc1ccccn1	-6.3%	i
COC(=O)c1ccccc1S(=O)(=O)Nc1ccc2cn[nH]c2c1	-10.5%	-12.9%
Cc1[nH]nc(SCC(=O)Nc2cccc(O)c2)c1[N+](=O)[O-]	4.8%	i
CC1CCN(C(=O)c2cccc(NC(=O)c3nsc4ccccc34)c2)CC1	-6.4%	-3.2%
O=C(Nc1ccc2oc(-c3ccccc3F)nc2c1)c1ccc2c(c1)OCCO2	-29.1%	i
CCCCC(=O)N(C)c1c(CC)nc2c(OCc3ccc(Cl)cc3Cl)cccn12	-5.9%	21.1%
COc1ccccc1N(C)S(=O)(=O)c1ccc(C(=O)Nc2ncc(C)s2)cc1	-19.1%	-7.3%
CC(C)c1ccc(OCc2ccc(C(=O)N3CCN(c4ccccn4)CC3)cc2)cc1	-29.0%	·
CN(C)S(=O)(=O)c1cccc(NC(=O)c2ccccc2SCC(=O)N2CCCC2)c1	-7.1%	5.9%
COc1cccc(N2CCN(C(=O)c3nn(C)c4c3CSc3ccc(C)cc3-4)CC2)c1	1.6%	i
O=C(Oc1cccc(/C=N/Nc2nc(N3CCOCC3)nc(N3CCOCC3)n2)c1)c1ccco1	-14.4%	-0.4%
COc1cc(C(=O)Nc2nc(-c3ccc(Cl)cc3)c(C)s2)ccc1OCC(=O)Nc1ccc(F)cc1	-10.2%	-11.0%
C[C@H](CO)N1C[C@H](C)[C@@H](CN(C)S(=O)(=O)c2cn(C)cn2)Oc2c(NS(=O)(=O)c3ccc(F)cc3)cccc2C1=O	-5.7%	i

(listing goes on)
SMILES	VACV Venus inh	Vaccinia mCherry
CCOC(=O)Cc1csc(NC(=O)/C=C/c2ccccc2Cl)n1	-23.2%	-1.9%
O=C(OCn1nnc2ccccc2c1=O)c1ccc2c(=O)n3c(nc2c1)CCC3	-10.8%	-11.7%
Cc1cc(C)n(CC(=O)NC2CCCCC2)n1	-18.8%	-16.3%
CCC(C)[C@H](NC(=O)Nc1ccc2c(c1)OCCO2)C(=O)O (stereo partly specified)	-24.7%	i
COc1ccc(-n2c(CNC(=O)COc3ccccc3)n[nH]c2=S)cc1	-10.0%	i
O=C(c1ccccc1Br)N1CCN(c2ccccn2)CC1	-1.1%	i
COc1ccc(CN(C2CCCC2)S(=O)(=O)c2ccc(-n3cnnn3)cc2)cc1OC	-15.0%	?
COc1ccc(-c2ccc(SCC(=O)N3CCN(c4ccccc4)CC3)nn2)cc1	6.8%	-6.0%
Cc1cc(NS(=O)(=O)c2ccc(Nc3nc(-c4sc(N)nc4C)cs3)cc2)no1	15.1%	·
COc1ccc(S(=O)(=O)N2CCc3ccccc32)cc1C(=O)N1CCOCC1	-4.2%	-9.7%
COc1cccc(CN(Cc2cccnc2)S(=O)(=O)c2ccc(-n3cnnn3)c(C)c2)c1	-17.5%	-26.2%
Cc1cccc(C)c1NC(=O)C1CCN(S(C)(=O)=O)CC1	-17.8%	-14.1%
CCOC(=O)c1cc(S(=O)(=O)NCc2ccccc2)[nH]n1	5.5%	-10.7%
Cc1cc(C)cc(NC(=O)N2C3CCCC2CC(NC(=O)C2CC2)C3)c1 (stereo unspecified)	6.6%	-8.7%
O=C(Cn1cncc1-c1ccc([N+](=O)[O-])cc1)Nc1cccc2ccccc12	-3.8%	-4.0%
CCOc1ccc(N(CC(=O)NC2CCCCC2)C(=O)CSc2nnc(COc3ccccc3)o2)cc1	-22.2%	i
Cc1cc(C)c2oc(-c3ccc(C)c(NC(=O)/C=C/c4ccco4)c3)nc2c1	-4.9%	-8.3%
C=CCOc1ccc(CN(C)CC(=O)Nc2ccccc2[N+](=O)[O-])cc1	-2.6%	0.0%
CCCCC[C@@H]1CCCCC[C@H](O)C[C@@H](O)[C@@H](O)/C=C/C(=O)O1	-9.4%	17.6%
COc1ccc(CNC(=S)Nc2ccc(-c3ccccc3)cc2)cc1	-12.7%	-4.6%
C=CCNC(=S)Nc1ccc(N2CCOCC2)c(S(=O)(=O)Nc2ccccc2Cl)c1	-13.4%	-12.1%
CC[C@]12c3[nH]c4cc(CCC(=O)N(C)C)ccc4c3CCN1C(=O)[C@@H](CC(=O)NCCCOC)C[C@@H]2C(=O)N1CCN(C(=O)C2CC2)CC1	1.2%	i
Cc1ccc(C(=O)NC(=S)Nc2ccc(N3CCN(C(=O)c4ccco4)CC3)cc2)cc1	-29.6%	-19.8%
COc1ccc(C2c3c(n(C)c4ccccc34)C(=O)N2CC(=O)Nc2ccc(C)c(Cl)c2)cc1 (stereo unspecified)	-8.8%	-5.7%

Record cards (already shown). Order of values: VACV Venus inh | Vaccinia mCherry
COc1ccc(CNC(=S)Nc2ccc(-c3ccccc3)cc2)cc1 across the screens: -12.7% | -4.6%
O=C(Cn1cncc1-c1ccc([N+](=O)[O-])cc1)Nc1cccc2ccccc12 across the screens: -3.8% | -4.0%
CC[C@]12c3[nH]c4cc(CCC(=O)N(C)C)ccc4c3CCN1C(=O)[C@@H](CC(=O)NCCCOC)C[C@@H]2C(=O)N1CCN(C(=O)C2CC2)CC1 across the screens: 1.2% | i
Cc1ccc(C(=O)NC(=S)Nc2ccc(N3CCN(C(=O)c4ccco4)CC3)cc2)cc1 across the screens: -29.6% | -19.8%

Next section.
SMILES	VACV Venus inh	Vaccinia mCherry
Cc1ccc(-c2cc(C(=O)N3CC(C)OC(C)C3)c3ccccc3n2)o1 (stereo unspecified)	-12.2%	-17.3%
O=C(COc1ccc(Cl)cc1Cl)Nc1c(-c2cccs2)nc2ccccn12	-9.1%	-17.0%
C[C@@H]1COc2cccc(N3CCN(Cc4ccccc4F)CC3)c2S(=O)(=O)N1	-4.9%	5.9%
Cc1sc2c(c1C)C(O)=C(C(=O)Nc1ccccc1)S(=O)(=O)N2C	-10.4%[7.34 µM]	-6.0%[7.34 µM]
Cc1cc(S(=O)(=O)Nc2ccc(C(=O)NCC3(N4CCCCC4)CCCCC3)cc2)ccc1F	-5.3%	-13.6%
COc1ccc(-c2cc(C(=O)NCc3ccc(F)cc3)[nH]n2)c(C)c1	-10.9%	i
NC(=O)CSCc1ccc(Br)cc1	-4.8%	-0.1%
O=C(CSc1nnnn1-c1ccc2c(c1)CCC2)Nc1ccc2c(c1)OCCO2	-17.0%	-15.2%
N#Cc1ccc(-c2cccnc2)nc1SCC(=O)c1ccccc1	-13.5%[7.34 µM]	-15.1%[7.34 µM]
CCc1cc(=O)oc2c3c(cc(OCC(=O)NC4CC4)c12)OC(C)(C)CC3	-15.4%	-8.7%
CCOc1ccc(-c2c(C(=O)N/N=C/c3ccc(OC(C)C)cc3)nnn2-c2nonc2N)cc1	-17.6%	i
CNC(=S)N(CCc1c(C)[nH]c2ccc(C)cc12)Cc1ccco1	-12.8%	i
CCC(=O)N(Cc1c(C)nn(-c2ccccc2)c1Cl)c1ccc(Cl)cc1	0.0%	-7.2%
COc1cccc(-c2ccc3ncnc(NCc4ccccc4OC)c3c2)c1	-0.6%	i
COc1ccc(Br)cc1C1CC(=O)C(C)C(c2cc(Br)ccc2OC)N1 (stereo unspecified)	-17.6%	-17.0%
CCN=c1scc(C)n1/N=C/c1ccsc1	-15.2%	i
Cc1ccc(S(=O)(=O)N(C)C)cc1NC(=S)Nc1cccc2ccccc12	-5.4%	?
Cc1ccccc1NC(=O)NC1(C(=O)N2CCC(O)CC2)CCCCC1	6.7%	-5.7%
Cc1nn(C)c(C)c1CN(Cc1nc(-c2cc(F)ccc2F)oc1C)C1CC1	-7.6%	-19.8%
CC(C)(C)[C@H]1CCC(=O)N([C@H](CSc2ccccc2)Cc2ccccc2)CC1	-20.5%&-3.3%	-0.8%
COc1cccc(NC(=O)CN(Cc2ccccc2)S(=O)(=O)c2ccc3nc(C)sc3c2)c1	-6.8%	-8.8%
CCC(CC)NC(=O)CC(c1ccccc1)c1ccccc1	5.9%	-1.0%
CCc1ccc(S(=O)(=O)ON2C(=O)c3ccccc3C2=O)cc1	1.0%	-1.8%
CCCCOCCCN1CC(=O)N2[C@@H](Cc3c([nH]c4ccccc34)C2(C)C)C1=O	-20.2%	?
O=C(NCc1ccccc1)C12CN(Cc3ccccc3)CC1C(c1ccc([N+](=O)[O-])cc1)=NO2 (stereo unspecified)	-3.9%	-5.5%
Cc1cc(C(=O)Nc2ccccc2N2CCOCC2)ccc1[N+](=O)[O-]	-9.3%	-9.4%

No enrichment for hits; any-hit rate near 0.82%.
